GLA inh pH 4.5 = blocks human alpha-galactosidase A at pH 4.5. P06280. purified enzyme, 4-MU-alpha-Gal fluorescence, pH 4.5. activity change, negative = inhibition, % at 105 µM. 230,000 tested, under 10 active; inconclusive = small, poorly fitted or top-dose-only inhibition, or a rising curve; inactive = flat fitted curve, though single readings scatter; no compound was filed as active;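 further: 0% = full activity with enzyme and -100% = basal without enzyme; dose as in the result columns while the protocol names 77 µM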
Target sequence (P06280 whole entry, looked up): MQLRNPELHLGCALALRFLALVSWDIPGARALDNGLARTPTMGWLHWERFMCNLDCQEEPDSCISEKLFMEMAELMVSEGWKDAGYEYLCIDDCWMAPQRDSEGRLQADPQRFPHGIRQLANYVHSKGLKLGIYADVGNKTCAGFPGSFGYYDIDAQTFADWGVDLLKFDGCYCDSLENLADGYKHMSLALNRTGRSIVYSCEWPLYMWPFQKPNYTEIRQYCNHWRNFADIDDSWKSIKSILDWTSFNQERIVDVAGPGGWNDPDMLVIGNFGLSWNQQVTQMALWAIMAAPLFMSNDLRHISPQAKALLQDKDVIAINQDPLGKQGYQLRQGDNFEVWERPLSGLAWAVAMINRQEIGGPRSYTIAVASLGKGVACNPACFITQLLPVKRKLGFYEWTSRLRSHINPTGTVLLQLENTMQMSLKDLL
Rango release inh = inhibitors of RanGTP-induced Rango-importin beta complex dissociation | Potency, µM (top dose mostly 46.1 µM), for the others: at the top dose activity change, negative = inhibition | AID 540253 | Biochemical FRET Rango-importin beta, RanGTP-induced dissociation | O95149+P62826 | 340,000 compounds, 0.071% hits; active means falling FRET ratio curve, often poorly fitted, with flat reads before Ran was added; inconclusive means other falling curves, or compound fluorescence or quenching; inactive means flat or rising ratio curve;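 further: potency means the concentration at half of the fitted maximal effect; % of control where 0% means no effect; nearly all actives have a fitted effect of over 45% in size; -100% = wells without RanGTP and RCC1; the record marks most hits as doubtful in a second field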
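Rango (0.1 uM)–importin beta (0.25 uM) complex; RanGTP-RCC1 trigger; 45 min RT; CFP/YFP FRET read.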
miR-21 reporter = miR-21 reporter, rising signal | HeLa miR-21 FLuc reporter, luciferase, 48 h | Potency, µM (top dose mostly 38.3 µM), for inactives: at the top dose reporter change, positive = more light | 340,000 tested, under 10 active; active = well fitted rising curve with a large enough effect; inconclusive = small, poorly fitted or top-dose-only effect; inactive = no such curve, though single readings can be large or run the other way;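 further: % of control where 0% means no effect; miR-21 action dims this reporter so a rising signal means less miR-21 action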
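HeLa cells stably expressing CMV-driven firefly luciferase with a downstream miR-21 binding sequence, endogenously expressing miR-21, were treated with titrations (up to about 40uM final) for 48 hours at 37 degree Celsius. Luciferase luminescence was read after lysis.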
Rango-impB inh = inhibitors of Rango-importin beta complex formation; Q14974; Rango CFP/YFP FRET sensor + importin beta, 45 min; Potency, µM (highest dose often 92.2 µM), without a hit: at the top dose inhibition of complex formation; 340,000 compounds, 0.031% hits; AID 540263; active = rising FRET ratio curve, often small or poorly fitted; inconclusive = mostly compound fluorescence or quenching in the first reads; inactive = flat curves in all reads;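 further: potency means the concentration at half of the fitted maximal effect; 0% = DMSO wells and 100% = buffer wells lacking importin beta; nearly all actives have a fitted effect of over 15% in size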
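FRET biosensor Rango (snurportin 1 IBB between N-terminal EYFP and C-terminal Cerulean), 50 nM in PBS/1 mM DTT/0.02% Tween-20/0.1% BSA, preincubated 5 min RT with compound; 0.125 microM importin beta added, 45 min RT, CFP/YFP FRET ratio read.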
Starred values were filed as active, the others as inactive; ? = inconclusive; . = no result given; & = joins results of further samples.

| SMILES | GLA inh pH 4.5 | Rango release inh | miR-21 reporter | Rango-impB inh |
| --- | --- | --- | --- | --- |
| O=C(Cn1ccc2ccccc2c1=O)NCCC(=O)N1CCN(C2CCCCC2)CC1 | 0.7 | -10.2% | -4.6% | -0.2% |
| O=C(NN1CCOCC1)c1ccccc1NS(=O)(=O)c1ccc(F)cc1F | . | -15.2% | . | 4.4% |
| C=CCCC(=O)N1CCCC(C(=O)c2cccc(OC)c2)C1 (stereo not given) | . | 10.3% | -3.5% | -1.6% |
| CC(C)c1ccc(S(=O)(=O)N2CCN(C(=O)n3ccnc3)CC2)cc1 | . | 7.9% | . | -3.2% |
| CC1(C)c2ccccc2N2CC(=O)N(CC(N)=O)C21C (stereo not given) | . | -7.7% | 9.0% | 5.2% |
| Nc1nonc1C(=O)NCCNC(=O)c1ccc(Cl)c(Cl)c1 | . | 0.3% | -10.4% | 1.5% |
| Cc1cc(C)n(C(=O)c2nn(C)c(C)c2[N+](=O)[O-])n1 | -11.3 | -2.1% | -2.9% | 0.8% |
| CC(NC(=S)Nc1ccc(S(N)(=O)=O)cc1)c1ccc2c(c1)OCO2 (stereo not given) | 6.7 | -4.3% | -2.4% | -2.1% |
| CCN(c1ccccc1)S(=O)(=O)c1cc(C(=O)Nc2cccc(Cl)c2)ccc1F | -1.5 | 7.7% | ? | -1.5% |
| Cc1cnc(NC(=O)CSc2nnc(C)n2N)s1 | -1.3 | 16.1% | -19.5% | 3.8% |
| O=C(NC1CCN(C(=O)Nc2ccccc2Cl)CC1)c1cccc(F)c1 | . | 16.7% | 1.6% | -5.2% |
| COc1cc(/C=C/c2nc3ccccc3c(=O)[nH]2)cc(OC)c1OC | . | -0.4% | -6.4% | 0.1% |
| COc1ccc(S(=O)(=O)NCC2CCC(C(=O)O)CC2)cc1 (stereo not given) | . | 3.8% | 0.6% | 1.2% |
| COc1ccc(C(=O)NCc2nnc(SCC(=O)N3CCCCC3)o2)cc1OC | 3.3 | -1.0% | -1.5% | 0.3% |
| CC(=O)c1cccc(NC(=O)CCc2nnc3ccc(N4CCOCC4)nn23)c1 | . | -0.9% | 1.0% | 0.0% |
| CC1CCCN(c2sc(S(C)(=O)=O)nc2S(=O)(=O)c2ccc(Cl)cc2)C1 (stereo not given) | . | 0.9% | 6.9% | 2.3% |
| COc1ccc(OCc2nnc(SCC(=O)N(C)Cc3ccccc3)n2N)cc1 | -0.4 | -7.8% | 0.2% | 3.7% |
| O=[N+]([O-])c1c(NCCCO)cc(SCc2ccco2)c2nonc12 | -9.4 | -12.2% | -0.6% | -3.6% |
| COC(=O)CCC(=O)OC1(C)C(=O)C=C2C=C(C3CC3)N(Cc3ccco3)C=C2C1=O (stereo not given) | 4.8&-20.9 | ? | 5.7% | ? |
| CC(=O)c1ccc(NC(=S)NNC(=O)c2ccncc2)cc1 | -6.8 | 8.6% | -27.9% | 3.9% |
| CCc1ccc(C2C(C(=O)O)c3ccccc3C(=O)N2C)cc1 (stereo not given) | -7.9 | -12.9% | -3.1% | 2.9% |
| CN1C[C@@H]2[C@@H]3C(=O)N(Cc4ccccc4)C(=O)[C@@H]3[C@](Cc3ccccc3)(C1=O)N2C(=O)c1ccc(C(C)(C)C)cc1 | . | -10.6% | . | ? |
| CCOC(=O)C1CCCN(C(c2ccccn2)c2c(C)[nH]c3ccccc23)C1 (stereo not given) | 1.8 | 6.2% | -4.1% | -2.3% |
| NNc1nc2c(-c3ccc(F)cc3)nnn2c2ccccc12 | 1.0 | ? | -38.1% | ? |
| COc1ccccc1-n1c(SCC(=O)O)nc2c(sc(=S)n2-c2ccc(C)c(C)c2)c1=O | . | -10.6% | -1.8% | 2.6% |

Part of the list above, with values under each structure:
Each structure is followed by: GLA inh pH 4.5	Rango release inh	miR-21 reporter	Rango-impB inh
> O=C(Cn1ccc2ccccc2c1=O)NCCC(=O)N1CCN(C2CCCCC2)CC1
 : 0.7	-10.2%	-4.6%	-0.2%
> O=C(NN1CCOCC1)c1ccccc1NS(=O)(=O)c1ccc(F)cc1F
 : .	-15.2%	.	4.4%
> C=CCCC(=O)N1CCCC(C(=O)c2cccc(OC)c2)C1 (stereo not given)
 : .	10.3%	-3.5%	-1.6%
> CC(C)c1ccc(S(=O)(=O)N2CCN(C(=O)n3ccnc3)CC2)cc1
 : .	7.9%	.	-3.2%
> CC1(C)c2ccccc2N2CC(=O)N(CC(N)=O)C21C (stereo not given)
 : .	-7.7%	9.0%	5.2%
> Nc1nonc1C(=O)NCCNC(=O)c1ccc(Cl)c(Cl)c1
 : .	0.3%	-10.4%	1.5%
> Cc1cc(C)n(C(=O)c2nn(C)c(C)c2[N+](=O)[O-])n1
 : -11.3	-2.1%	-2.9%	0.8%
> CC(NC(=S)Nc1ccc(S(N)(=O)=O)cc1)c1ccc2c(c1)OCO2 (stereo not given)
 : 6.7	-4.3%	-2.4%	-2.1%
> CCN(c1ccccc1)S(=O)(=O)c1cc(C(=O)Nc2cccc(Cl)c2)ccc1F
 : -1.5	7.7%	?	-1.5%
> Cc1cnc(NC(=O)CSc2nnc(C)n2N)s1
 : -1.3	16.1%	-19.5%	3.8%
> O=C(NC1CCN(C(=O)Nc2ccccc2Cl)CC1)c1cccc(F)c1
 : .	16.7%	1.6%	-5.2%
> COc1cc(/C=C/c2nc3ccccc3c(=O)[nH]2)cc(OC)c1OC
 : .	-0.4%	-6.4%	0.1%
> COc1ccc(S(=O)(=O)NCC2CCC(C(=O)O)CC2)cc1 (stereo not given)
 : .	3.8%	0.6%	1.2%
> COc1ccc(C(=O)NCc2nnc(SCC(=O)N3CCCCC3)o2)cc1OC
 : 3.3	-1.0%	-1.5%	0.3%
> CC(=O)c1cccc(NC(=O)CCc2nnc3ccc(N4CCOCC4)nn23)c1
 : .	-0.9%	1.0%	0.0%
> CC1CCCN(c2sc(S(C)(=O)=O)nc2S(=O)(=O)c2ccc(Cl)cc2)C1 (stereo not given)
 : .	0.9%	6.9%	2.3%

(continued)
| SMILES | GLA inh pH 4.5 | Rango release inh | miR-21 reporter | Rango-impB inh |
| --- | --- | --- | --- | --- |
| COc1ccc(CN2C(=O)CS/C2=N/N=C/c2ccccc2)cc1 | -15.2 | 5.2% | -8.7% | -0.1% |
| Cc1ccc(-n2ncc3c2CC(C)(C)CC3NC(=O)C2CCOCC2)cc1 (stereo not given) | . | -5.2% | -4.5% | -0.1% |
| CCOc1ccc(NC(=O)n2ncc3c(C)cccc32)cc1 | . | -7.3% | -35.5% | 0.9% |
| Cc1cc(=O)n2nc(N3CCCC(C(=O)NC4CCCCC4C)C3)sc2n1 (stereo not given) | . | -22.4% | -2.5% | 2.7% |
| COc1ccc2c(c1)[C@H]1[C@H](CO2)[C@H](c2ccccc2)[C@@]2(C)C(=O)N[C@H](C)C(=O)N12 | . | -10.2% | . | -4.7% |
| O=[N+]([O-])c1ccc(N2CCN(Cc3ccccc3)CC2)c(S(=O)(=O)N2CCOCC2)c1 | 4.8 | -8.9% | -9.8% | 0.1% |
| COCCCNS(=O)(=O)c1ccc(C)cc1 | 1.4 | 15.9% | -1.6% | -1.0% |
| Clc1ccc(CSc2nnnn2-c2ccc3c(c2)OCO3)c(Cl)c1 | -4.4 | -4.1% | -13.1% | 4.5% |
| O=C1NC2(CCCCC2)C(=O)N1CCS(=O)(=O)Oc1ccccc1 | 2.8 | -5.7% | -5.4% | -1.9% |
| CCC1C(=O)CC(c2ccc([N+](=O)[O-])cc2)NC1c1ccc([N+](=O)[O-])cc1 (stereo not given) | 3.9 | 1.3% | -0.2% | -0.5% |
| Oc1ccc(Cl)cc1/C=N/c1nc2ccccc2[nH]1 | -0.7 | 0.6% | -19.2% | -2.2% |
| O=C1CC(N2CCN(c3ccccc3)CC2)C(=O)N1c1ccc2c(c1)OCO2 (stereo not given) | 5.9 | 8.8% | -9.2% | -4.1% |
| O=C(NCC1CCCO1)c1cc2n(n1)C(C(F)(F)F)CC(c1ccc(F)cc1)N2 (stereo not given) | -4.6 | -3.2% | -5.6% | 0.1% |
| O=C(COC(=O)Cc1ccc(Br)cc1)Nc1c(F)c(F)c(F)c(F)c1F | 3.4 | -11.7% | -3.1% | -4.8% |
| Cn1c(SCc2ccccc2)nnc1-c1c[nH]c2ccccc12 | 2.9 | 6.3% | -49.6% | -1.4% |
| O=C1CC(N2CCC(O)CC2)C(=O)N1c1ccc(Br)cc1 (stereo not given) | 14.1 | 6.2% | -5.0% | -3.1% |
| Cc1cccc(C)c1OCC(=O)Nc1ccc2c(c1)OCCO2 | . | -2.5% | -9.6% | -1.7% |
| Cc1ccc(N(C(=O)c2csnn2)C(C(=O)NC2CCCCC2)c2ccco2)cc1 (stereo not given) | . | 0.0% | 7.3% | -1.3% |
| COc1ccccc1OCC(=O)N1CCN(C(=O)COc2ccccc2OC)CC1 | . | 19.6% | 2.3% | -2.8% |
| Cc1ccc(C(=O)N2CCN(c3ccc(NC(=S)NC(=O)Cc4ccccc4)cc3)CC2)cc1 | 0.9 | -9.5% | 15.7% | -2.0% |
| Cc1cccc(C(=O)Oc2ccc(/C=N/NC(=O)Cc3ccc([N+](=O)[O-])cc3)cc2)c1 | -0.6 | 4.8% | -9.6% | -0.5% |
| C=CC[C@@H](Cc1ccc(F)cc1)C(=O)OC[C@@H]1CCCN1C(=O)[C@@H](CC=C)CC(=O)N[C@@H](CO)Cc1ccccc1 | . | -0.7% | . | -3.0% |
| S=C(NCCC(c1ccccc1)c1ccccc1)Nc1ccc(Cl)cc1 | -0.6 | 7.9% | 15.4% | 1.5% |
| Cc1ccc(C)c(NC(=S)N(C)C)c1 | -3.4 | -3.5% | -1.2% | 4.0% |
| CC(=O)N1CCN(Cc2nc3cc(NC(=O)c4cccs4)ccc3n2C)CC1 | . | -7.0% | 1.8% | -0.8% |
| CCN(CCCNC(=O)CC(C(=O)N1CCc2ccccc21)n1ccnc1)c1ccccc1 (stereo not given) | -3.1 | 0.3% | -1.6% | ? |
| Cc1noc(C)c1CSCC(=O)N(C)CC(=O)Nc1cccc(F)c1 | . | 2.2% | -4.4% | -1.4% |
| CCc1ccc(-c2nc(CSCC(=O)NC3CC3)c(C)o2)cc1 | . | -8.5% | ? | 3.3% |
| Cn1c(=N)c(S(=O)(=O)c2ccc(F)cc2)cc2c(=O)n3ccccc3nc21 | 3.1 | ? | -4.2% | ? |
| COc1ccc(-c2noc(CCCC(=O)NC3CCCC3)n2)cc1 | . | 9.4% | ? | 0.6% |
| Cc1nn(Cc2c(Cl)cccc2Cl)c(Cl)c1/C=N/NC(=O)c1cccnc1 | -11.8 | -1.3% | -17.5% | -2.9% |
| COc1ccccc1Oc1ccnc2cc(Cl)ccc12 | . | 9.3% | -17.9% | 1.5% |
| CCCC(=O)C1=C(N2CCCC2)CC(C)(C)C(C(=O)OC)C1=O (stereo not given) | 3.8 | -4.9% | -0.7% | 2.3% |
| CCC(Oc1ccc(C)cc1)C(=O)Nc1ccc(S(=O)(=O)Nc2nccs2)cc1 (stereo not given) | . | -7.2% | 3.2% | -0.2% |
| c1ccc(C[C@H]2CN=C(Nc3ccccc3)N2CC2CCCCC2)cc1 | . | -15.4% | . | -0.2% |
| CCCCOC(=O)CSc1nc2c(c(=O)[nH]c(=O)n2C)n1C/C=C(\C)Cl | 13.0 | ? | 0.5% | -1.5% |
| O=C(c1cnn2c(C(F)(F)F)cc(-c3ccc4c(c3)OCO4)nc12)N1CCCCC1 | -0.8 | 7.5% | -3.0% | ? |
| O=C(NCc1ccco1)c1ccc(CS(=O)(=O)Cc2ccc(F)cc2)o1 | 2.0 | 1.3% | -5.2% | -0.8% |
| COc1ccc(CNc2cccnc2)c(OC)c1OC | . | 1.6% | . | -1.8% |
| Cc1ccc2nc(NC(=O)CSCC(=O)OCC(=O)c3ccccc3)sc2c1 | -2.8 | ? | 25.2% | 2.2% |
| O=[N+]([O-])c1ccc(NCCCO)c(S(=O)(=O)N2CCOCC2)c1 | -10.0 | -5.1% | -5.7% | 2.0% |
| Cc1ccsc1/C=N/NC(=O)Cc1ccc([N+](=O)[O-])cc1 | . | 2.3% | . | 2.1% |
| COc1ccc(C(=O)N/C(=C\c2cccc3ccccc23)C(=O)N2CCN(C)CC2)cc1 | . | -2.5% | . | 0.0% |
| C/C1=C\CCC2C(/C=C(\C)CC1)OC(=O)C2CN1CCCCC1 (stereo not given) | . | 15.1% | ? | 0.5% |

An excerpt; count on the stated rates, not on these rows.
